nsP2pro primary: Primary qHTS for inhibitors of NSP2Pro chikungunya virus (CHIKV). Polyprotein P1234 (Chikungunya virus (strain S27-African prototype)), Q8JUX6. FRET peptide cleavage, nsP2pro, fluorescence 1 h. Potency, µM (titrated, usually from 24.9 µM), for inactives: top-dose activity change, negative = inhibition, hits mostly inhibitors. 31,000 compounds, 1.1% hits. AID 1964107, 2024; active means well fitted inhibition curve with a large enough effect; inconclusive means small, poorly fitted or top-dose-only effect; inactive means no such curve, though single readings can be large or run the other way; also: nearly all actives have a fitted effect of over 60% in size; a reference inhibitor and vehicle were the controls
Target sequence (Q8JUX6 whole entry, looked up): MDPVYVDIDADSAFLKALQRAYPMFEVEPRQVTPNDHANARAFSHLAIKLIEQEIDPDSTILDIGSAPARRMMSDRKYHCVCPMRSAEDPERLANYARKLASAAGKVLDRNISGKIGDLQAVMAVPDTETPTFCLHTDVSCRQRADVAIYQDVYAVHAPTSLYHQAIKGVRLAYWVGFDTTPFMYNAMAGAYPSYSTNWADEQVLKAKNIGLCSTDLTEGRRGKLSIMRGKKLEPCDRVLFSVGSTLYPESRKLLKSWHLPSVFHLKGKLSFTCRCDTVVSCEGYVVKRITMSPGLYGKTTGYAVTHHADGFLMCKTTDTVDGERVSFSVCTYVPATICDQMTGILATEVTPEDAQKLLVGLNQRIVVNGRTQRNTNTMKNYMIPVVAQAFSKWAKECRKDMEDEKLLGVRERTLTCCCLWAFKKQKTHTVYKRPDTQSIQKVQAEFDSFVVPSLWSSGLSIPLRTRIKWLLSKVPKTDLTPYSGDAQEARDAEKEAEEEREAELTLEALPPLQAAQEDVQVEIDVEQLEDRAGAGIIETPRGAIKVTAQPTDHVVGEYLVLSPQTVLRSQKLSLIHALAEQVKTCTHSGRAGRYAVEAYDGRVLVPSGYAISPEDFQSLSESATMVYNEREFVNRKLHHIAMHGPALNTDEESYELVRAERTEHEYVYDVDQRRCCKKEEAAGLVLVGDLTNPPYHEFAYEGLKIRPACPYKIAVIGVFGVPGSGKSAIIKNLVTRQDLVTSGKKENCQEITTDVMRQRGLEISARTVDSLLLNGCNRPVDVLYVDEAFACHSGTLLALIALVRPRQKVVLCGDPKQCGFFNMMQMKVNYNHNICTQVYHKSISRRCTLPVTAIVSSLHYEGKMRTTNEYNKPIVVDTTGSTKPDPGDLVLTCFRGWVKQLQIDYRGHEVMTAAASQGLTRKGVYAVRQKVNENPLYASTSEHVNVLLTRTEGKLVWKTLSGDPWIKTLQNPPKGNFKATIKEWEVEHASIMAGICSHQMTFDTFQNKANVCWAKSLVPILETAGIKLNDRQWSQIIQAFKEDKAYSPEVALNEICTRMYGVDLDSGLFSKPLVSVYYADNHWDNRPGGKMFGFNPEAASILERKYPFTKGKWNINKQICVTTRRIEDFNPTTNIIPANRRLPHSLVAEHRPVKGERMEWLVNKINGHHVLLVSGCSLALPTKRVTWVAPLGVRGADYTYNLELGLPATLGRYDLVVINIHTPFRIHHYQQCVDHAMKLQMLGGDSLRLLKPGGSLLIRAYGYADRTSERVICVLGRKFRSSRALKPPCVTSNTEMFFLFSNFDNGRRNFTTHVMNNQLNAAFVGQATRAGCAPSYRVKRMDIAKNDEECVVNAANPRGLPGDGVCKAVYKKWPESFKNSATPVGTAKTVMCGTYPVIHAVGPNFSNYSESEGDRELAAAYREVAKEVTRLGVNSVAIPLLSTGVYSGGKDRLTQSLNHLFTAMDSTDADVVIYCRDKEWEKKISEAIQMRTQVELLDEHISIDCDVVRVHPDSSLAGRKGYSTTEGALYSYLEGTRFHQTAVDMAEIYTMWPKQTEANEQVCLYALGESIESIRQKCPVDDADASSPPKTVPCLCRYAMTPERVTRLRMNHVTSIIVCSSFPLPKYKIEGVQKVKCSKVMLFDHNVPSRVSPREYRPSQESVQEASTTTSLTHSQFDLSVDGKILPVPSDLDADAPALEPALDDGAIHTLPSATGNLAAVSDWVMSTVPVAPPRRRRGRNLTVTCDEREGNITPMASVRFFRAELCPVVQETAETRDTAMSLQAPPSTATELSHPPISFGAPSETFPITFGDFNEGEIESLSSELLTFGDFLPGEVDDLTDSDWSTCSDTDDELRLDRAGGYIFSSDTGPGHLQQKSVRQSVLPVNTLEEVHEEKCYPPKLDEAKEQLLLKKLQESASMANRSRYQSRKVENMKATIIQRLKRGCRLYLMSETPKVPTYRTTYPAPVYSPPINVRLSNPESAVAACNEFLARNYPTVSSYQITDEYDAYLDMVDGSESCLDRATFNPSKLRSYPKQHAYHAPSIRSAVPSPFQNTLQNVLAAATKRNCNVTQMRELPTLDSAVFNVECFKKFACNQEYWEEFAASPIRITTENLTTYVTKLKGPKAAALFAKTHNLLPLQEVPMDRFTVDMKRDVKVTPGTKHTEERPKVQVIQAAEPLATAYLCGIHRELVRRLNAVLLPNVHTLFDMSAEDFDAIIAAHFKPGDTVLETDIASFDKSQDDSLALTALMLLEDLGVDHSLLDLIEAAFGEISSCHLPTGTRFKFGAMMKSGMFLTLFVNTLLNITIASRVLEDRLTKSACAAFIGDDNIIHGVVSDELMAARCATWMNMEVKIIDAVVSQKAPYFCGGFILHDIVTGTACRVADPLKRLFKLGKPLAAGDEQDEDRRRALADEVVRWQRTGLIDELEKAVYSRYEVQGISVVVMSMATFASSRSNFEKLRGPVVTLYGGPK
Starred values were filed as active, the others as inactive; i = inactive; ? = inconclusive; & = joins results of further samples; [ ] = remark or other dose. % is scaled to controls: 0 for no effect and ±100 for the full control effect; potency is read from the fitted curve at half-maximal effect.

Start of the listing, in advance:
SMILES	nsP2pro primary
COc1cc(C)c(C(=O)O[C@H]2[C@@H](OC(C)=O)[C@H](n3ccc(=O)[nH]c3=O)O[C@@H]2CO)c(OC)c1	-16%[10 µM]
COc1ccc(N(C)C(=O)C2CCN(S(=O)(=O)c3cc(Br)cc4c3N(C(C)=O)CC4)CC2)cc1	-20%

The listing, from the first entry:
SMILES	nsP2pro primary
COc1cc(C)c(C(=O)O[C@H]2[C@@H](OC(C)=O)[C@H](n3ccc(=O)[nH]c3=O)O[C@@H]2CO)c(OC)c1	-16%[10 µM]
COc1ccc(N(C)C(=O)C2CCN(S(=O)(=O)c3cc(Br)cc4c3N(C(C)=O)CC4)CC2)cc1	-20%
Oc1ccccc1-c1cc(C2=CCOCC2)c2cncn2c1	-5%[39.2 µM]
CC(C)=CCCC1(C)/C=C/C(OC(=O)C=C(C)C)C(C)(O)/C=C/C(=O)/C(CO)=C\C1 (centres undefined)	10%[10 µM]
CN1CCN(C2=Nc3ccccc3Cc3ccccc32)CC1	-1%
CCC(O)(c1nnc(NCc2ccc3c(-c4ccc(F)cc4)cc(=O)oc3c2)o1)C(F)(F)F (centres undefined)	i
CCCSc1oc(-c2cccs2)nc1S(=O)(=O)c1ccc(C)cc1	-23%
CCN(CC)Cc1cnc2c(C(=O)N3CCCN4CCC[C@H]4C3)cnn2c1	2%
CCOc1ccc(CCNC(=O)c2ccc3c(c2)N(Cc2ccccc2F)C(=O)c2ccccc2S3=O)cc1OCC (centres undefined)	-20%
COc1cccc(C(=O)c2cn(CC(=O)NCCc3ccccc3)c3nc(C)ccc3c2=O)c1	-6%
COc1ccc(O[C@@H]2O[C@H](CO)[C@H](O)[C@H](O)[C@H]2O)cc1	5%
CC(C)NC(=O)C[C@@H]1O[C@H](CNCc2ccc(F)cc2)[C@@H](O)[C@H]1O	-1%[39.2 µM]
Cc1cc(C)cc(-n2ccn(CC(=O)Nc3ccccc3F)c(=O)c2=O)c1	4%
COc1ccccc1N=C1SC(C(=O)Nc2ccccc2OC)CC(=O)N1C (centres undefined)	-16%
COc1ccc(C2Nc3ccccc3C(=O)N2Cc2ccc(C(C)(C)C)cc2)cc1COc1ccc(NC(C)=O)cc1 (centres undefined)	-8%
CC(NC(=O)c1ccccc1NC(=O)c1nsc2ccccc12)c1ccccc1 (centres undefined)	-24%
CS(=O)(=O)N(C1CCOCC1)C1CN(C(=O)c2cncc(Br)c2)C1	-1%
c1ccc(OCCCCN2CCOCC2)c(CNC2CCNC2)c1 (centres undefined)	-4%
COc1cc2c(cc1OC)n(CC(=O)c1cccc(Cl)c1)c(=O)n1nc(CCn3nc(C)cc3C)nc21	-16%
CCN(CC)C(=O)N[C@@H]1C=C2c3cccc4[nH]cc(c34)C[C@@H]2N(C)C1	12µM*
O=C(CSc1nnc(-c2ccncc2)n1-c1ccccc1)Nc1ccc(F)cc1	-25%
COCCN1CC(CO)C2(CCN(Cc3ccc(C#N)cc3)CC2)C1 (centres undefined)	3%
COc1cccc(CNC(=O)c2ccc(NC(=O)N3CC(C)Sc4ccccc43)cc2)c1 (centres undefined)	-7%
C(#Cc1cccc(CN2CCOCC2)c1)CCN1CCCCC1	9.9µM*
O=C1Cc2c(-c3ccccc3OCc3ccccc3)n[nH]c2CN1CC1CCOCC1	i
Cc1cc(Br)ccc1NC(=O)COc1cc(=O)n(C)c2ccccc12	-18%
COC[C@@H]1OC[C@@]2(C)C3CC[C@@H](O)[C@@H](CC(=O)N4CCCCC4)[C@]3(C)CC[C@H]2O1 (some centres undefined)	-4%[39.2 µM]
Cc1cc(C)cc(-c2ccc(CN3CCCC(N[S+](C)(=O)[O-])C3)cc2)c1 (centres undefined)	i
Cc1cnc(Nc2ccc(OCCN3CCCC3)cc2)nc1Nc1cccc(S(=O)(=O)NC(C)(C)C)c1	18%&50%
C=C(C)COc1ccc(C(=O)N2CCN3C(=O)CN(C)C(=O)C3C2)cc1 (centres undefined)	1%
O=C1Nc2ccccc2CN(Cc2ccccc2)C12CCNC2 (centres undefined)	?
CCCNC(=O)C1CCC(CNS(=O)(=O)c2ccc3c(c2)CC(C)N3C(C)=O)CC1 (centres undefined)	-9%
CCCCCNC(=O)C1CCC(Cn2c(=O)c3sccc3n(CC(=O)N3CCCC3)c2=O)CC1 (centres undefined)	-19%
Cc1ccccc1C(=O)N1CCc2cc(-c3nc(NC(=O)Cc4ccc5ccccc5c4)sc3C)ccc21	0%
COc1ccc(CCC(=O)c2c(O)cc(O)cc2O[C@@H]2O[C@H](CO)[C@@H](O)[C@H](O)[C@H]2O)cc1	31%[10 µM]
O=C(N/N=C/c1ccc([N+](=O)[O-])o1)c1ccc(O)cc1	-9%[10 µM]
Cc1noc(C)c1CN1CCC2(CC1)C(C(=O)O)CC(=O)N2C (centres undefined)	-1%
CC(C)(C)OC(=O)N1CC(NCc2cccc(F)c2F)C1	-4%[39.2 µM]
C[N+](C)(C)CCOP(=O)([O-])OP(=O)(O)OC[C@H]1O[C@@H](n2ccc(N)nc2=O)[C@H](O)[C@@H]1O	-6%
O=C(Cc1ccsc1)NCC1CCCCC(=O)N1 (centres undefined)	i
C[C@H]1[C@H]2CC[C@H]3[C@@H]4CC=C5C[C@@H](N(C)C)CC[C@]5(C)[C@H]4CC[C@]23CN1C	-3%[5.1 µM]
CCS(=O)(=O)N1CCC2(CC1)CN(c1cccc(F)c1)C2c1ccccc1 (centres undefined)	-4%
CN1C(=O)c2[nH]nc(-c3ccc(F)cc3)c2C1c1ccccn1 (centres undefined)	-11%
CCOc1ccc2nc(N(Cc3cccnc3)C(=O)c3ccc4c(c3)OCCO4)sc2c1	-13%
CCOC(=O)c1cc(-c2ccccc2)n(CCC(=O)Nc2ccc(C(F)(F)F)cc2)c1C	-12%
N#Cc1ccccc1OC1=NS(=O)(=O)c2ccccc21	1%
COc1c2c(nc3occc13)C(CC=C(C)C)(OC)C(O)CC2 (centres undefined)	-8%
CCC12CN3CC(CC)(CN(C1)C3c1ccccn1)C2=O (centres undefined)	10%
CCN(C(=O)Cn1c(SCc2ccccc2F)nc2cccnc21)c1ccccc1	4%
Cc1nc(Nc2ncc(C(=O)Nc3c(C)cccc3Cl)s2)cc(N2CCN(CCO)CC2)n1	21%&14%&24%
CC(C)c1ccc(Nc2ncnc3onc(-c4ccc(F)cc4)c23)cc1	-10%
Oc1ccc(C(O)CNCCCCCCNCC(O)c2ccc(O)c(O)c2)cc1O (centres undefined)	?
COc1ccc(C2CC(=O)NC(NC(=O)c3ccc(Br)cc3)=N2)c(OC)c1OC (centres undefined)	-4%
Cc1c(NC(=O)c2ccc(C(C)(C)C)cc2)cccc1-c1cn(C)c(=O)c(Nc2ccc(C(=O)N3CCOCC3)cc2)n1	12%
Cc1ncc(CO)c(CO)c1O	?
CCC(C)/C=C(C)/C=C/C1=CC2=CC(=O)C(C)(O)C(OC(C)=O)C2CO1 (centres undefined)	-2%
CN(C)c1ccc(C(=O)NCC(=O)OC(C(=O)Nc2cc(C(F)(F)F)ccc2Cl)c2ccccc2)cc1 (centres undefined)	-1%
CC(=O)N1CCN(c2ccc(C(=O)N3CCN(Cc4ccccc4)CC3)nn2)C(=O)C1	3.5µM*
Oc1cc(Nc2ccncc2)cc2cccnc12	i
O=S(=O)(NCCSc1nnnn1-c1ccccc1)c1ccc(F)cc1	3%

A second format for 6 compounds above:
Structure | nsP2pro primary
CC(NC(=O)c1ccccc1NC(=O)c1nsc2ccccc12)c1ccccc1 (centres undefined) | -24%
CCOc1ccc2nc(N(Cc3cccnc3)C(=O)c3ccc4c(c3)OCCO4)sc2c1 | -13%
Cc1cc(Br)ccc1NC(=O)COc1cc(=O)n(C)c2ccccc12 | -18%
CCS(=O)(=O)N1CCC2(CC1)CN(c1cccc(F)c1)C2c1ccccc1 (centres undefined) | -4%
O=C(Cc1ccsc1)NCC1CCCCC(=O)N1 (centres undefined) | i
CCN(CC)C(=O)N[C@@H]1C=C2c3cccc4[nH]cc(c34)C[C@@H]2N(C)C1 | 12µM*

Later entries:
SMILES	nsP2pro primary
COc1ccc(N2CCN(Cc3cccn3-c3nnc(N4CCN(C5CCCCC5)CC4)s3)CC2)cc1	-23%
CCOC(=O)C1(CCc2ccccc2)CCN(Cc2ccc(NC(C)=O)cc2)CC1	-3%
COc1cccc(-c2ccc(-c3nc4ccccc4c(=O)[nH]3)o2)c1	3%
FC(F)(F)c1ccc(N2C3CCC2CN(Cc2ccc(-c4ccccc4)cc2)C3)cc1	-10%
C=CCC1=C[C@]2(OC)[C@H](C)[C@@H](c3ccc(OC)c(OC)c3)O[C@]2(OC)CC1=O	-3%
CN(CC1CCOCC1)C(=O)c1ccsc1	-1%
CC(=O)O[C@@H]1[C@H](O[C@@H]2O[C@H](CO)[C@@H](O)[C@H](O)[C@H]2O)[C@@H](O[C@@H]2O[C@@H](C)[C@H](O)[C@@H](O[C@@H]3O[C@H](CO)[C@@H](O)[C@H](O)[C@H]3O)[C@H]2O)[C@H](OC(=O)C23CCC4(C)C(=CCC5C6(C)CC(O)C(O[C@@H]7O[C@H](C(=O)O)[C@@H](O)[C@H](O)[C@H]7O)C(C)(C(=O)O)C6CCC54C)C2CC(C)(C)CC3O)O[C@@H]1C (some centres undefined)	-10%[5.1 µM]
Cc1cnccc1-c1nc(Nc2ccc(F)c(F)c2)c2ccccc2n1	-3%
O=C1CCc2cc(S(=O)(=O)Nc3cccc(Cl)c3)ccc2N1	-16%
COc1ccccc1C(=O)Nc1cc2c(cc1N1CCCC1)n(C)c(=O)n2C	14%
C/C=C(\C)C(=O)O[C@@H]1[C@@H](C)[C@]2(O)C3C=C(C)C(=O)[C@@]3(O)CC(CO)=C[C@H]2C2C(C)(C)[C@@]21OC(=O)C(C)CC (some centres undefined)	?
CC(C)(O)/C=C/C1=CC(=O)[C@@](C)(O)C[C@H]1O	-10%
CCn1c2ccccc2c2cc(CNC)ccc21	-11%&15%
CCC1COCCN1C(=O)c1coc(COc2ccc3c(c2)OCO3)n1 (centres undefined)	i
CN(C)C(=O)c1n[nH]c2c1CN(C(=O)c1ccccc1Br)CC2	3%

Seven entries from above in a different format.
molecule | nsP2pro primary
Cc1noc(C)c1CN1CCC2(CC1)C(C(=O)O)CC(=O)N2C (centres undefined) | -1%
CC(C)(C)OC(=O)N1CC(NCc2cccc(F)c2F)C1 | -4%[39.2 µM]
C[N+](C)(C)CCOP(=O)([O-])OP(=O)(O)OC[C@H]1O[C@@H](n2ccc(N)nc2=O)[C@H](O)[C@@H]1O | -6%
O=C(Cc1ccsc1)NCC1CCCCC(=O)N1 (centres undefined) | i
C[C@H]1[C@H]2CC[C@H]3[C@@H]4CC=C5C[C@@H](N(C)C)CC[C@]5(C)[C@H]4CC[C@]23CN1C | -3%[5.1 µM]
CCS(=O)(=O)N1CCC2(CC1)CN(c1cccc(F)c1)C2c1ccccc1 (centres undefined) | -4%
CN1C(=O)c2[nH]nc(-c3ccc(F)cc3)c2C1c1ccccn1 (centres undefined) | -11%

Following part.
SMILES	nsP2pro primary
NC(=O)NC1NC(=O)NC1=O (centres undefined)	-21%&-11%
CC(C)(C)c1ccnc(N[C@H]2CO[C@H]3[C@@H]2OC[C@@H]3NC(=O)c2cccs2)n1	-18%[39.2 µM]
CC1=C(C/C=C(\C)CCC[C@H](C)CCC[C@H](C)CCCC(C)C)C(=O)c2ccccc2C1=O	?
Cn1cnc(-c2nccc3c(=O)[nH]c(OCCCC(F)(F)F)nc23)c1	452%[activator]
COc1cccc(CN2C(=O)CCCCC2C(=O)NC2CCS(=O)(=O)C2)c1 (centres undefined)	4%
CCOC(=O)c1c(CNCc2ccccc2F)c2sc(C)cc2n1C	0%
COc1cc(O)cc(C)c1C(=O)OC1C(CO)OC(OC2C(O)C(O)C(O)C(O)C2O)C(O)C1O (centres undefined)	-15%[10 µM]
CN1CCc2nc3sc(C(=O)c4ccc(F)cc4)c(N)c3cc2C1	?
COC[C@H]1CCCN1c1nc(CCN)nc2sc(C)c(C)c12	5%
C[C@H]1O[C@@H](O[C@H]2CC[C@]3(C=O)C4CC[C@]5(C)[C@@H](C6=CC(=O)OC6)CC[C@]5(O)[C@@H]4CC[C@]3(O)C2)C[C@@H](O)[C@@H]1O (some centres undefined)	9%[10 µM]
CCC(=O)N1c2ccccc2CC1C(=O)N1CCN(c2cccc(OC)c2)CC1 (centres undefined)	-25%
O=C(Nc1nc(-c2ccccc2)cs1)c1ccccc1	-2%
Cc1ccccc1CNC(=O)c1ccc(-c2nc(CS(=O)(=O)c3ccccc3)c(C)o2)cc1	-9%
COc1ccc(OCC(=O)N2CCN(c3cc(-c4ccccc4)[nH]n3)CC2)cc1	-1%
CNc1sc(-c2cccc3ccccc23)nc1C(=O)OC	-4%
Cc1ccc(S(=O)(=O)N2CCc3cc(C(=O)N(C)Cc4ccccc4)ccc32)cc1	-19%
CC1CCCN(c2ncnc3c2CN(c2cccnc2)C(=O)CN3C)C1 (centres undefined)	-9%
CCCCNC(=O)c1ccc2c(c1)ncn2-c1cccc(C)c1	-4%
O=S(=O)(Nc1ccccc1N1CCCCC1)c1ccc(Cl)s1	-8%
O=C(C1CCCCC1)N1CC(=O)N2CCc3ccccc3C2C1 (centres undefined)	?
Cc1csc(NC(=O)c2sc3nc4c(c(C(F)(F)F)c3c2N)CCC4)n1	-7%
COc1ccc(OC)c(NC(=O)CC(=O)Nc2ccc3nc4n(c(=O)c3c2)CCCCC4)c1	0%
CC(C)Cc1cc(CC2(NC3CCOCC3)COC2)no1	i
Cc1noc(C)c1-c1ccc2ncnc(NCc3cc(F)cc(F)c3)c2c1	-9%
Cc1c(C(=O)Nc2ccccc2Cl)oc2ccc(S(=O)(=O)N3CCCCCC3)cc12	-19%
CN(C(=O)Nc1ccc2ccccc2c1)c1nnc(-c2ccncc2)s1	3%
COc1ccccc1CN[C@H]1CC(C)(C)[C@@H]2C[C@@](C)(O)CC[C@]12CCC(=O)NCCc1c[nH]c2ccccc12	-13%

Assay outcomes: PubChem, National Center for Advancing Translational Sciences (NCATS)

The list is partial; rates above refer to the full screens.
